# High-throughput results as filed in PubChem.
# KCNQ2 inh: KCNQ2 potassium channel inhibitors, primary screen, cell-based, CHO-K1, FluxOR thallium flux, B-score (AID 2156); Potassium voltage-gated channel subfamily KQT member 2 (Rattus norvegicus), O88943; 20 min; hits give low values; only compounds with negative scores are shown here; some inactives read as strong as hits; B-score at 10 µM; 310,000 tested, 1.1% active;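 active = fluorescence ratio B-score at most minus 3 library SDs, with starting brightness B-score within 2 library SDs, cut at about -5.5 in these data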
# Target sequence (O88943 whole entry, looked up): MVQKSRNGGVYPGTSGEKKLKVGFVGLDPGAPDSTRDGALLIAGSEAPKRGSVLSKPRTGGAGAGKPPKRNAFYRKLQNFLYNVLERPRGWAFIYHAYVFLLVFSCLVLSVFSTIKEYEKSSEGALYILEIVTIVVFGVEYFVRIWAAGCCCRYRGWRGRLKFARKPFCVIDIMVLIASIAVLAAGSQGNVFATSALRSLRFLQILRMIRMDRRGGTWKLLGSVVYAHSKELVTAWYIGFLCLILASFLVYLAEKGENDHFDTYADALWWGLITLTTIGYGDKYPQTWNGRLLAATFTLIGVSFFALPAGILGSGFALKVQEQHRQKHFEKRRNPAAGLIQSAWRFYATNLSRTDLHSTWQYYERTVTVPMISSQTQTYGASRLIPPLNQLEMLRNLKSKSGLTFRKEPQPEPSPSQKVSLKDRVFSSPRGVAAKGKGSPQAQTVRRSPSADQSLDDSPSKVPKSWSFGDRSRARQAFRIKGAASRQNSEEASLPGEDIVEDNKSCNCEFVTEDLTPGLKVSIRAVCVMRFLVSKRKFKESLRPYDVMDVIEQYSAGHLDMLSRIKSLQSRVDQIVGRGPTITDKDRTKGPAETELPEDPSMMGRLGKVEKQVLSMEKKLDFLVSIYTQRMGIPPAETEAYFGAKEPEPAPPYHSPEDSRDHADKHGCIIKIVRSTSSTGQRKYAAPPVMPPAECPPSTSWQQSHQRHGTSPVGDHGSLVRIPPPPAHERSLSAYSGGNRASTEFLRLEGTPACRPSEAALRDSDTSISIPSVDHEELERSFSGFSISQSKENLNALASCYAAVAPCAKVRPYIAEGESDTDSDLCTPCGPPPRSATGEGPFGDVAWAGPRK
# KCNQ2 inh baseline: recorded beside KCNQ2 inh, whose call it bears; B-score; measured here: initial fluorescence intensity artifact check;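 brightness before thallium and not channel activity; 0 = typical well and far values either way flag optical interference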
# Active calls of the source: *; i = inactive. Not all compounds are listed. The share of hits here may be higher or lower than overall.
SMILES,KCNQ2 inh,KCNQ2 inh baseline
N#CCCN(C(=O)COC(=O)C1=COCCO1)c1ccc(F)cc1,i,-0.66
Cc1occc1C(=O)Nc1ccc([N+](=O)[O-])cc1Br,i,0.5
CCNC(=O)C1CCCN1S(=O)(=O)c1ccc(C)cc1 (configuration not stated),i,0.9
Cc1ccccc1C(C(=O)NCc1ccccc1)N(Cc1ccco1)C(=O)c1ccccn1 (configuration not stated),i,0.32
COC(=O)c1sccc1NC(=S)OC,i,-1.8
O=C(CN1C(=O)C2C3CC(C(Br)C3Br)C2C1=O)N1CCN(Cc2ccccc2)CC1 (configuration not stated),i,1.2
O/N=C1\CCCc2ccccc21,i,-0.55
Cc1ccc(S(=O)(=O)Cn2nnnc2C(C(C)C)N2CCN(c3nc4ccccc4s3)CC2)cc1 (configuration not stated),i,1.1
NC(=O)CCN1CCN(CCOC2Cc3cc(Cl)ccc3Sc3ccccc32)CC1 (configuration not stated),i,0.88
Cc1cc(=O)oc(C)c1C(=O)NCc1ccco1,i,0.15

# Two entries drawn at random from those above:
SMILES,KCNQ2 inh,KCNQ2 inh baseline
CCNC(=O)C1CCCN1S(=O)(=O)c1ccc(C)cc1 (configuration not stated),i,0.9
Cc1ccc(S(=O)(=O)Cn2nnnc2C(C(C)C)N2CCN(c3nc4ccccc4s3)CC2)cc1 (configuration not stated),i,1.1

# (list continues)
SMILES,KCNQ2 inh,KCNQ2 inh baseline
CCOc1ccc2nc(NCCNC(=O)CC)c(C#N)cc2c1,i,2
CCN(Cc1cc(=O)oc2cc(C)ccc12)c1ccccc1,i,-0.93
O=C(CN1c2ccccc2Sc2ccccc21)NNC(=O)Nc1ccc(Cl)cc1,i,-0.27
CCOC(=O)Nc1ccc2c(c1)N(C(=O)CN(CC)CC)c1ccccc1CC2,i,-0.1
COc1ccc(C2=NNC(c3cccs3)=Nc3ccc(OC)cc32)cc1,i,0.31
O=[n+]1c2c(n([O-])c3cc(F)c(N4CCCC4)cc31)CCC2,i,25
Cc1cccn2c(=O)c(/C=C(\C#N)C(=O)NC3CCS(=O)(=O)C3)c(N3CC(C)OC(C)C3)nc12 (configuration not stated),i,2
O=c1[nH]c2ccccc2cc1-c1nnn(-c2ccc(F)cc2)n1,i,1.8
COc1cc(/C=N/NC(=O)c2cc[n+]([O-])cc2)ccc1O,i,-2.4
Nc1nc(-c2cccc(F)c2)cs1,i,-0.13
CCOC(=O)c1c(NC(=O)Cn2cc([N+](=O)[O-])cn2)sc2c1CCC2,i,0.73
CC(C)C(=O)NC(C)C(c1cccs1)N1CCN(c2ccccc2)CC1 (configuration not stated),i,0.24
CCC(C)(C)NC(=O)C1CC(=O)N(CCc2ccc(F)cc2)C1 (configuration not stated),i,-0.63
CCCn1c(C(C)Nc2nc(-c3ccc(C)cc3)cs2)nc2cc(Cl)c(N3CCCCC3)cc21 (configuration not stated),i,0.99
C/C(CC(=O)Nc1cc(C)ccn1)=N\NC(=O)c1ccccc1C,i,1.4
O=C(Nc1ccccc1N1CCOCC1)c1ccc(S(=O)(=O)NCc2ccco2)cc1,i,-0.93
CCC(C)c1ccc(S(=O)(=O)N2CCN(C(C)CC(=O)O)CC2)cc1 (configuration not stated),i,1.1
Cc1ccc(-c2nc(-c3cccnc3)sc2CC(=O)O)cc1,i,-0.99
COC(=O)c1sc2nc(SCc3cccc(F)c3)n(N)c(=O)c2c1C,i,0.82
O=C(c1cccc2c1-c1ccccc1/C2=N/O)N1CCCCC1,i,-0.3
Brc1ccc2nc(-c3ccncc3)c(NC3CCCC3)n2c1,i,0.31
Cc1c(-c2ccccc2)[n+](=O)c2c(n1[O-])CCCC2,i,1.1
O=C1OC[C@H](Cc2ccc3c(c2)OCO3)/C1=C\c1ccc2c(c1)OCO2,i,0.77
COc1cccc(-c2cc(C(=O)NCC3CCCO3)c3cc(C)cc(C)c3n2)c1 (configuration not stated),i,0.43
Cc1ccc(C(C[N+](=O)[O-])n2nc(C)cc2C)cc1 (configuration not stated),-7.4*,0.75*
CC(C)(C)NC(=O)COc1coc(CN2CCN(C(=O)c3ccco3)CC2)cc1=O,i,0.35
O=C(Cc1ccccc1)n1nc(-c2ccccc2)nc1NCc1ccco1,-5.6*,0.37*
CCS(=O)(=O)NCC(c1ccco1)N1CCN(c2ccc(F)cc2)CC1 (configuration not stated),i,1.7
COc1ccccc1Cn1c(CO)nc2ccccc21,i,2.5
CN(C)C=Nc1ccccc1C1C=NNC1=O (configuration not stated),i,2.5

# Overlap with the part before: three compounds; new compounds follow.
SMILES,KCNQ2 inh,KCNQ2 inh baseline
CCS(=O)(=O)NCC(c1ccco1)N1CCN(c2ccc(F)cc2)CC1 (configuration not stated),i,1.7
COc1ccccc1Cn1c(CO)nc2ccccc21,i,2.5
CN(C)C=Nc1ccccc1C1C=NNC1=O (configuration not stated),i,2.5
COCCN(C(=O)Nc1ccc(F)cc1F)c1nc2ccccc2s1,i,-0.03
O=C(CSc1ncccn1)N1CCN(C(c2ccccc2)c2ccccc2)CC1,i,-4.8
CC(C)c1ccc(N(C(=O)c2ccco2)C(C(=O)NC2CCCC2)c2cccnc2)cc1 (configuration not stated),i,-0.35
CCN(C(=O)COC(=O)c1oc2ccc(OC)cc2c1C)C1CCCCC1,i,1.1
CN(Cc1nc(-c2ccccc2)no1)C(=O)c1ccc2c(c1)OCO2,i,0.35
COCCNC(=S)Nc1ccc2nc(N3CCOCC3)cc(C)c2c1,i,-3.6
CCCNC(=O)c1ccc(CN2CCc3ccccc3C2)cc1,i,0.25
CN(C)c1ncc(S(=O)(=O)c2ccccc2)c(=O)[nH]1,i,0.66
Cc1cc(C)cc(NC(=O)CCN2C(=O)c3ccccc3S2(=O)=O)c1,i,0.32
Oc1ccccc1C=NC(c1ccccc1)C(O)c1ccccc1 (configuration not stated),i,1
CN(C)c1nc(N)nc(Cn2nnc(-c3ccc(C(F)(F)F)cc3)n2)n1,i,0.4
CCc1ccc(OCC(=O)Nc2ccc3[nH]ncc3c2)cc1,i,-1.2
Cc1ccc(NC(=S)N(Cc2cccs2)Cc2cc3cc(C)ccc3[nH]c2=O)cc1,i,0.34
COc1ccc(CN2CCNC(=O)C2CC(=O)NCc2cn[nH]c2-c2ccccc2)c(F)c1 (configuration not stated),i,0.3
O=C(NCc1ccccc1)C(=O)NCC1OCCN1S(=O)(=O)c1ccc([N+](=O)[O-])cc1 (configuration not stated),i,0.11
COC(=O)c1oc2ccccc2c1-n1cccc1,i,-2.5
O=C1CCC(C(=O)N2CCN(c3ccccc3Cl)CC2)CN1CC1CCCCC1 (configuration not stated),i,0.05
CCc1nc2ccccc2n1CC(C)C(=O)O (configuration not stated),i,0.87
CN(C)/C=C/c1[nH]c(=O)[nH]c(=O)c1[N+](=O)[O-],i,-0.5
CCn1c(C(=O)NCCCN2CCc3ccccc3C2)cc2sccc21,i,-2.4
O=C(NCCCn1ccnc1)c1ccc(OCC(F)(F)F)cc1,i,0.29
COc1ccccc1CNC(=O)c1cccc(S(=O)(=O)N2CCN(C)CC2)c1,i,-0.56
CC1(C)SC2c3ccccc3C(=O)N2[C@@H]1C(=O)O (some centres not stated),i,0.01
COc1cc(NC(=O)c2cc(S(=O)(=O)N3CCc4ccccc43)cn2C)cc(OC)c1OC,i,0.25
COCCN1C(=O)c2[nH]nc(-c3ccccc3O)c2C1c1ccc(OC)cc1 (configuration not stated),i,1.2
CCn1c(CSc2nc3ccccc3s2)nc2ccccc21,i,-0.01
COc1cc(/C=N/NC(=O)c2ccc(O)cc2)ccc1OCC(=O)Nc1cccc([N+](=O)[O-])c1,i,-0.82
O=C(COC(=O)CNC(=O)c1ccccc1F)Nc1ccc2c(c1)OCCO2,i,0.15
COc1ccc(N2CCC(CNC(=O)Nc3ccc(Cl)cc3)C2)cc1 (configuration not stated),i,0.39
COc1cccc(C2c3c(oc4ccccc4c3=O)C(=O)N2CCCN2CCOCC2)c1 (configuration not stated),i,0.05
COc1ccc(CCNC(=O)CSc2nnc(-c3ccco3)c(-c3ccco3)n2)cc1OC,i,2
Nc1cc(C2CCCC2)nn1-c1ccccc1,i,0.46
O=C(Nc1ccccc1Cc1ccccc1)c1oc2ccccc2c1COc1ccccc1,i,-0.87
CCN(CC)c1nc(Nc2ccccc2)nc(Oc2ccc(=O)[nH]n2)n1,i,0.11
O=C(Oc1ccc(/C=N/NC(=O)c2ccccc2F)cc1)c1ccccc1,i,1.1
Cc1[nH]n(-c2ccccc2)c(=O)c1/C=N/NC(=O)c1ccc(O)cc1O,i,-0.76
Cc1ccc(OCCN(C)C(=O)C2CCC(=O)N(Cc3ccccc3F)C2)cc1 (configuration not stated),i,0.01
O=C(c1cc(-c2ccco2)on1)N1CCN(C(c2ccccc2)c2ccccc2)CC1,-7.7*,1.1*
Cc1cc(C)cc(NC(=O)C2CCCN(S(=O)(=O)c3c(C)noc3C)C2)c1 (configuration not stated),i,-0.16
COc1ccc(C(C(=O)NCc2ccccc2)N(Cc2ccco2)C(=O)c2cnccn2)cc1 (configuration not stated),i,4.9
COc1ccc(OCCSc2nc3nc(C)cc(C)n3n2)cc1,i,0.04
Cc1cc(Cl)ccc1OCCCC(=O)OCC(N)=O,i,0.15
O=S(=O)(Nc1ccc(F)cc1)c1ccc(NC(=S)Nc2ccccc2)cc1,i,-3
COc1ccc(OC)c(-c2csc(NC(=O)c3ccc4c(c3)OCO4)n2)c1,i,-1.6
NS(=O)(=O)c1ccc(CCNC(=O)C2CCC(Cn3c(=S)[nH]c4ccccc4c3=O)CC2)cc1 (configuration not stated),i,0.7
CC1CN(c2nc3ccccc3nc2C(C#N)C(=O)OC2CCCCC2)CC(C)O1 (configuration not stated),-5.9*,0.88*
O=C(COc1ccc2c(c1)oc(=O)c1ccccc12)N[C@@H](Cc1c[nH]c2ccccc12)C(=O)O,i,-0.02
CCC(C)NS(=O)(=O)c1ccc(OCC(=O)NCC2CCCO2)cc1 (configuration not stated),i,0.04
Cc1cccc(N2CCN(C(=O)NC(C)c3ccc(F)c(F)c3)CC2)c1C (configuration not stated),i,-0.33
C=C(C)CNC(=S)N1CCNC(=O)C1CC(=O)OC (configuration not stated),i,-0.08

# The list continues.
SMILES,KCNQ2 inh,KCNQ2 inh baseline
COc1ccc(NC(=O)COC(=O)c2ccc(OCc3c(C)noc3C)cc2)cc1OC,i,2.4
O=C(Cn1cnc2ccccc2c1=O)NNC(=O)c1ccccc1,i,0.1
CN1C(=O)C2C(c3ccc(N(C)C)cc3)=NN(Cc3ccccc3)C2C1=O (configuration not stated),i,-0.66
CCC(C)C(=O)Nc1ccc(OC)cc1[N+](=O)[O-] (configuration not stated),i,0.02
NS(=O)(=O)c1ccc(CNC(=O)c2ccc3c(=O)n4c(nc3c2)CCC4)cc1,i,-0.47
CCCNS(=O)(=O)c1ccc(OCC(=O)Nc2ccccc2F)cc1,i,-1.9
O=C(Nc1ccc(N2CCOCC2)cc1N1CCOCC1)c1ccc([N+](=O)[O-])cc1Cl,i,1.2
COc1ccc(Br)c(C(=O)N2CCN(S(=O)(=O)/C=C/c3ccccc3)CC2)c1,i,0.52
COc1ccccc1/C=C/C=N/n1c(-c2cc(-c3ccccc3)n[nH]2)n[nH]c1=S,i,-0.27
CCOc1ccccc1Oc1coc2cc(OC(=O)c3ccco3)ccc2c1=O,i,1.1

# Record cards (already shown). Order of screens: KCNQ2 inh | KCNQ2 inh baseline
# Record of NS(=O)(=O)c1ccc(CNC(=O)c2ccc3c(=O)n4c(nc3c2)CCC4)cc1 → i | -0.47
# Record of O=C(Nc1ccc(N2CCOCC2)cc1N1CCOCC1)c1ccc([N+](=O)[O-])cc1Cl → i | 1.2
# Record of CCC(C)C(=O)Nc1ccc(OC)cc1[N+](=O)[O-] (configuration not stated) → i | 0.02

# (further entries)
SMILES,KCNQ2 inh,KCNQ2 inh baseline
COc1ccc(OC)c(C(=O)c2coc3ccc(O)cc23)c1,i,-0.06
NNC(=S)Nc1ccc(OC(F)(F)F)cc1,i,0.65
Cc1cccc(NNC(=S)Nc2c(C)cccc2C)c1,i,-0.08
CN1CCN(CCOC2Cc3ccccc3Sc3ccc(Cl)cc32)CC1 (configuration not stated),i,-0.19
CCc1ccc(CN(C)C(=O)c2ccc3c(c2)OCCO3)cc1,i,2.1
O=C(c1cc(-c2ccccc2)on1)N1CCCc2ccccc21,i,1.4
CCS(=O)(=O)N1CCN(C(C)CCc2ccccc2)CC1 (configuration not stated),i,-1.1
Cc1nnc(NC(=O)c2ccc(S(=O)(=O)N3CCc4ccccc4C3)cc2)o1,i,0.72
CCOC(=O)c1cc(-c2ccccc2)n(CC(=O)Nc2ccc(OC)c(OC)c2)c1C,i,0.79
COc1cc2c(C(=O)N3CCN(c4ccccc4)CC3)c(C)oc2cc1Br,-7.4*,-2.3*
CCCOC(=O)CCCC[C@H]1SC[C@@H](NC(=O)OC)[C@H]1NC(=O)OC,i,-3.1
Oc1ccccc1N1CCN(c2ncccn2)CC1,i,0.58
CC1CCCN(C(=O)CCCNC(=O)c2ccc(Cl)cc2)C1 (configuration not stated),i,1.8

# Part of the list above, as labelled records.
> CCOC(=O)c1cc(-c2ccccc2)n(CC(=O)Nc2ccc(OC)c(OC)c2)c1C
  KCNQ2 inh: i
  KCNQ2 inh baseline: 0.79

> CCc1ccc(CN(C)C(=O)c2ccc3c(c2)OCCO3)cc1
  KCNQ2 inh: i
  KCNQ2 inh baseline: 2.1

> Cc1cccc(NNC(=S)Nc2c(C)cccc2C)c1
  KCNQ2 inh: i
  KCNQ2 inh baseline: -0.08

> Oc1ccccc1N1CCN(c2ncccn2)CC1
  KCNQ2 inh: i
  KCNQ2 inh baseline: 0.58
